# rRNA inh HTS – selective bacterial rRNA inhibition in E. coli; GFP signal change (wild-type ribosome), % (no concentration beside the values); 350,000 tested, 1.6% active; E. coli WT GFP vs humanized-ribosome RFP mutants, fluorescence, 24 h; hits give low values; DMSO median 0, no signal -100;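 active = significant combined selectivity score with lowered wild-type GFP, culture density cut under 30%, mutant RFP and density less affected; inactive = any of these conditions unmet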; also: one replicate is shown; some compounds called inactive have numbers as strong as hits
# AF4-AF9 inh – blocks AF4 peptide binding to human AF9; P42568; AlphaScreen, biotin-AF4 peptide binding to FLAG-AF9; inhibition, % at 10 µM; 350,000 tested, 0.47% active; AID 651704;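 active = every replicate reaching a set inhibition limit, whatever the replicate mean, cut at about 25% in these data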;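 also: 0% = plate neutral control median and 100% = total signal loss; the record names both 10 and 1 µM as test concentration; the first replicate is given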
# Target sequence (P42568 whole entry, looked up): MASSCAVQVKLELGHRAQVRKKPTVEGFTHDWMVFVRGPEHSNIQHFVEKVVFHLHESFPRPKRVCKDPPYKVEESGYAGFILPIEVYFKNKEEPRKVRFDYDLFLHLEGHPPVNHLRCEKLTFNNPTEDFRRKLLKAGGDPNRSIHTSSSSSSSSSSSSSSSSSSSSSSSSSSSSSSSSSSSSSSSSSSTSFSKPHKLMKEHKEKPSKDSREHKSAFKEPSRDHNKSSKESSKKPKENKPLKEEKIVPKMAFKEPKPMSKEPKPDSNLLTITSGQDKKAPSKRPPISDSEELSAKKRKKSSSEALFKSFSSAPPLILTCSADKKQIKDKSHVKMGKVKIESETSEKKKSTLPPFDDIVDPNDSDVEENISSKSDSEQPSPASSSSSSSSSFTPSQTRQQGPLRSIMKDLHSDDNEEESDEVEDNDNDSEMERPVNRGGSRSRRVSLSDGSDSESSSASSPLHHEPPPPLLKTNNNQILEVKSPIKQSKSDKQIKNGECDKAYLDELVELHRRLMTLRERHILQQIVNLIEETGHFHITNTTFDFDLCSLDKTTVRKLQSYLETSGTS
# rRNA inh HTS OD600 – second read-out of rRNA inh HTS, no call of its own (marks repeat the call); OD600 change, %; measured here: OD600 growth;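 optical density of the mix in the first replicate; 0 = DMSO median and -100 = no signal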
# rRNA inh HTS RFP – second read-out of rRNA inh HTS, no call of its own (marks repeat the call); RFP signal change, %; measured here: RFP humanized mutant strains;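 first replicate; 0 = DMSO median and -100 = no signal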
# An asterisk follows results filed as active. Not all compounds are listed; rates above refer to the full screens.
# A first look (3 entries):
SMILES,rRNA inh HTS,rRNA inh HTS OD600,rRNA inh HTS RFP,AF4-AF9 inh
Cc1ccc(-c2cnc3c(c2)C(=O)N([C@H](C)CO)C[C@@H](C)[C@@H](CN(C)C(=O)c2ccccc2)O3)cc1,1.3,4.4,-2.1,-1.6
COCCCNC(=O)C[C@@H]1C[C@@]2(C(=O)OC)CC(C)(C)CC=C2N(Cc2cccc3ccccc23)C1=O,-26.3,-47.5,2.2,4.7
CCN(CC)CCOC(=O)c1ccc(NC(=O)CSc2nnc(-c3cccs3)n2CC)cc1,-0.7,5.1,-0.2,2.3

# This part in full, previewed entries included:
SMILES,rRNA inh HTS,rRNA inh HTS OD600,rRNA inh HTS RFP,AF4-AF9 inh
Cc1ccc(-c2cnc3c(c2)C(=O)N([C@H](C)CO)C[C@@H](C)[C@@H](CN(C)C(=O)c2ccccc2)O3)cc1,1.3,4.4,-2.1,-1.6
COCCCNC(=O)C[C@@H]1C[C@@]2(C(=O)OC)CC(C)(C)CC=C2N(Cc2cccc3ccccc23)C1=O,-26.3,-47.5,2.2,4.7
CCN(CC)CCOC(=O)c1ccc(NC(=O)CSc2nnc(-c3cccs3)n2CC)cc1,-0.7,5.1,-0.2,2.3
C[C@@H]1CN([C@H](C)CO)C(=O)c2cc(NS(=O)(=O)c3ccc(Cl)cc3)ccc2O[C@@H](C)CCCCO[C@H]1CN(C)C(=O)Nc1ccc(C(F)(F)F)cc1,-2.4,3.7,0.5,-1.3
Cc1ccc(Cl)cc1-c1cc(C(=O)NCc2cc(C(F)(F)F)cc(C(F)(F)F)c2)[nH]n1,-0.2,-3.9,-1.7,-3.5
N#C[C@@H]1[C@H](c2ccccc2-c2cccc(F)c2)[C@H](CO)N1C(=O)C1CCC1,-1.0,-3.9,-1.9,-1.1
CNC[C@@H]1Oc2ccc(NC(=O)Cc3cn(C)c4ccccc34)cc2CC(=O)N([C@@H](C)CO)C[C@@H]1C,4.2,3.3,-2.1,3.7
O=C(C[C@@H]1C[C@H]2c3cc(NS(=O)(=O)c4ccccc4)ccc3O[C@H]2[C@H](CO)O1)NC1CCCCC1,-5.9,-10.6,2.5,1.3
CCCC(=O)Nc1ccc2c(c1)C(=O)N(C)C[C@@H](OC)[C@@H](C)CN(Cc1ccccc1F)[C@@H](C)CO2,0.4,3.5,-1.3,0.7
Nc1ccn([C@@H]2O[C@H](C(=O)N[C@H](CO)c3ccccc3)[C@@H](O)[C@H]2O)c(=O)n1,15.3,11.9,-1.1,-0.4
CC(C)C[C@H]1CN(CCCC[C@@H]2CNC(=O)C(=O)N2CC2CCCCC2)C(=O)C(=O)N1CCc1ccccc1,4.3,12.1,-1.6,-2.5
C[C@H]1CN([C@@H](C)CO)S(=O)(=O)c2ccc(-c3ccccc3F)cc2O[C@H]1CN(C)C(=O)C1CC1,-3.2,-8.7,-2.5,3.0
CN1C(=O)c2cc(NC(=O)C3CCC3)ccc2OC[C@@H]2O[C@@H](CC(=O)NCc3ccccc3F)CC[C@@H]21,-0.9,-3.0,-0.9,3.9
C[C@H]1CN([C@@H](C)CO)C(=O)Cc2cc(NC(=O)c3ccncc3)ccc2O[C@H]1CN(C)Cc1ccc(-c2ccccc2)cc1,-9.0,-40.6,26.1,10.9
C[C@H]1CN([C@@H](C)CO)C(=O)c2cc(NS(=O)(=O)c3ccc(Cl)cc3)ccc2O[C@H]1CN(C)C(=O)Nc1ccccc1,0.4,4.4,0.0,1.5
NC(c1cccc(F)c1)c1nc(-c2ccc(Cl)cc2)cs1 (configuration not stated),-41.8,-67.5,-2.6,-1.4
COc1ccc2c3c([nH]c2c1)[C@@H](CO)N(Cc1ccncc1)CC31CN(C(=O)CN(C)C)C1,3.8,8.1,-2.8,-3.7
C[C@H](CO)N1C[C@H](C)[C@H](CN(C)S(=O)(=O)c2ccc(Cl)cc2)Oc2c(NS(=O)(=O)c3cn(C)cn3)cccc2C1=O,-0.1,2.5,-0.2,0.7
CO[C@H]1CN(C)C(=O)c2ccc(NC(=O)Cc3ccccc3)cc2OC[C@H](C)NC[C@H]1C,1.5,-0.5,-0.8,-0.1
Cc1noc(C)c1NC(=O)Nc1ccc2c(c1)C(=O)N([C@@H](C)CO)C[C@H](C)[C@@H](CN(C)Cc1ccncc1)OCCCC[C@@H](C)O2,1.8,5.3,-2.8,-2.6
CC(C)C#Cc1ccc2c(c1)O[C@@H](CN(C)Cc1ccccc1)[C@@H](C)CN([C@@H](C)CO)S2(=O)=O,-5.0,-21.1,4.6,5.8
COc1cc(N)c(Cl)cc1C(=O)NC1CCN(Cc2ccccc2)CC1,4.0,4.5,1.8,0.7
Cc1noc(C)c1NC(=O)N(C)C[C@@H]1Oc2ccc(N(C)C)cc2C(=O)N([C@@H](C)CO)C[C@@H]1C,-0.4,2.8,-0.8,-5.5
C[C@@H]1CN([C@H](C)CO)C(=O)c2cccc(NS(C)(=O)=O)c2O[C@H]1CN(C)C(=O)Nc1ccc(F)cc1,-2.0,6.8,-0.7,-1.9
CO[C@@H]1CN(C)C(=O)c2cc(NC(=O)C3CC3)ccc2OC[C@H](C)N(CC2CCOCC2)C[C@@H]1C,0.6,3.5,1.7,-8.9
Cc1noc(C)c1NC(=O)N(C)C[C@H]1OCCCC[C@@H](C)Oc2ccc(NS(=O)(=O)c3ccc(F)cc3)cc2C(=O)N([C@H](C)CO)C[C@H]1C,-3.4,-8.2,-2.6,-4.1
C[C@@H](NC(=O)C[C@H]1C=C[C@@H](NC(=O)C2CCC2)[C@H](CO)O1)c1ccccc1,1.7,-1.5,1.2,3.0
CCOc1ccc(NS(=O)(=O)c2cc(NC(=O)CCNC(=O)c3ccco3)ccc2OC)cc1,-3.0,-3.3,3.9,-2.7
C[C@H]1CN([C@@H](C)CO)C(=O)c2cc(-c3ccc(C#N)cc3)cnc2O[C@H]1CN(C)C(=O)c1cccnc1,-0.1,4.0,-0.2,-4.5
CCCC(=O)Nc1ccc2c(c1)OC[C@@H](C)N(C(=O)c1cnccn1)C[C@@H](C)[C@H](OC)CN(C)C2=O,1.5,0.4,-1.3,-1.1
CC(=O)Nc1cc(-c2cccc(C(=O)NCCO)c2)cn2c(-c3ccc(F)cc3)cnc12,-5.9,-9.4,3.0,4.1
Cc1ccc(S(=O)(=O)N2CCCN(S(=O)(=O)c3ccccc3Br)CC2)cc1,-17.1*,-5.0*,6.4*,-4.0
COc1ccccc1-c1sc2ccccc2c1-c1cnc(N2CCOCC2)nc1,3.8,-18.6,-5.7,-0.1
C[C@H](CO)N1C[C@H](C)[C@@H](CN(C)C(=O)Nc2cccc3ccccc23)Oc2ccc(NC(=O)CCCN(C)C)cc2C1=O,2.1,11.6,0.0,-0.7
CN1C(=O)c2cc(NC(=O)c3ccccc3Cl)ccc2OC[C@H]2O[C@@H](CC(=O)NCC(F)(F)F)CC[C@H]21,1.7,-0.4,-0.6,-3.8
CCCNC(=O)N1CC2(CN(C(=O)COC)C2)c2c(n(C)c3cc(OC)ccc23)[C@H]1CO,-2.4,4.7,-6.1,-2.4
COCC(=O)N1C[C@@H](C)[C@H](OC)CN(C)C(=O)c2ccc(NS(C)(=O)=O)cc2OC[C@H]1C,1.3,-0.3,-1.6,-2.0
CCC(=O)N(C)C[C@H]1Oc2cc(C#Cc3cccnc3)ccc2S(=O)(=O)N([C@H](C)CO)C[C@@H]1C,-9.2,-3.2,0.5,-0.3
O=C(C[C@@H]1CC[C@H]2[C@@H](COC[C@@H](O)CN2S(=O)(=O)c2ccc(F)cc2)O1)N[C@@H]1CCN(Cc2ccccc2)C1,-0.7,-15.8,1.1,3.0
Cc1ccccc1S(=O)(=O)N1CC(=O)N2[C@H](C1)[C@H](c1ccc(C#Cc3ccccc3)cc1)[C@@H]2CO,7.2,18.6,-4.1,-0.4
C[C@H](CO)N1C[C@H](C)[C@@H](CN(C)C(=O)Nc2cccc3ccccc23)Oc2c(NS(=O)(=O)c3ccccc3)cccc2C1=O,-3.6,-14.4,-2.6,2.8
CO[C@@H]1CN(C)C(=O)c2cc(NS(=O)(=O)c3cn(C)cn3)ccc2OC[C@@H](C)N(Cc2cccc(F)c2)C[C@H]1C,-3.3,-7.1,0.2,-0.4
C/C=C/c1ccc2c(c1)O[C@H](CN(C)C(=O)c1cccnc1)[C@H](C)CN([C@@H](C)CO)S2(=O)=O,-4.5,6.0,1.9,-3.9
CC(C)(C)[S@@](=O)N1Cc2cc(C(=O)N3CCOCC3)nc(-c3cccc(Br)c3)c2[C@H]1CCO,0.4,-2.9,3.2,8.9
CO[C@@H]1CN(C)C(=O)c2cc(NC(=O)Nc3ccc(Cl)cc3)ccc2OC[C@H](C)N(C)C[C@@H]1C,-2.8,-13.6,5.1,3.5
C[C@@H]1CN([C@H](C)CO)C(=O)Cc2cc(N(C)C)ccc2O[C@H]1CN(C)C(=O)NC1CCCCC1,-0.7,5.2,-1.3,-1.2
COC(=O)C[C@H]1C[C@@H]2c3cc(NC(=O)CC4CC4)ccc3O[C@@H]2[C@@H](CO)O1,2.2,18.3,-2.0,-3.2
OCCNc1ncnc2c1ncn2[C@H]1CN(Cc2ccncc2)C[C@@H](CO)O1,15.8,18.9,2.6,-0.2
C=CCNc1ncnc2c1ncn2[C@H]1CN(CCc2ccccc2)C[C@@H](CO)O1,10.9,18.6,5.3,-4.1
COCCNC(=O)C[C@@H]1C[C@@H]2c3cc(NC(=O)C4CCOCC4)ccc3O[C@@H]2[C@@H](CO)O1,3.8,8.4,-1.8,-0.5
N#C[C@@H]1[C@@H](c2ccccc2-c2ccccc2)[C@@H](CO)N1C(=O)NC1CCCC1,4.8,-17.1,1.7,-2.4
Cc1noc(C)c1NC(=O)N(C)C[C@H]1OCCCC[C@@H](C)Oc2ccc(NS(=O)(=O)c3ccc(Cl)cc3)cc2C(=O)N([C@H](C)CO)C[C@H]1C,-0.6,-0.5,1.7,-11.0
CCN1[C@@H]2c3ccc(C4=CCCC4)c(=O)n3C[C@@H]2[C@@H](CO)[C@@H]1C(=O)NCc1ccccn1,0.1,-0.5,2.9,-0.9
COCC(=O)Nc1ccc2c(c1)C(=O)N(C)C[C@H](OC)[C@@H](C)CN(Cc1ccccc1OC)[C@@H](C)CO2,1.9,0.8,1.1,2.3
O=C(N[C@H]1c2ccccc2C[C@H]1O)[C@H]1O[C@@H](n2ccc(=O)[nH]c2=O)[C@H](O)[C@@H]1O,4.3,11.9,-2.0,-2.3
O=C(C[C@H]1CC[C@H](NC(=O)c2cccnc2)[C@H](CO)O1)NCc1ccncn1,4.8,9.0,2.1,1.9
COCC(=O)N(C)C[C@H]1Oc2cc(-c3cncnc3)ccc2S(=O)(=O)N([C@H](C)CO)C[C@@H]1C,0.5,3.5,-5.1,-0.7
CC(C)(C)NC(=O)C1C(c2ccccc2)=Nc2ccccc2N1C(=O)c1ccc(C(F)(F)F)cc1 (configuration not stated),2.8,-5.6,-1.1,1.3
COc1ccc(S(=O)(=O)Nc2cccc3c2O[C@@H](CN(C)Cc2ccccc2)[C@@H](C)CN([C@@H](C)CO)C3=O)cc1,-2.8,5.8,-0.3,-5.6
CCNC(=O)Nc1ccc2c(c1)C(=O)N(C)[C@H]1CC[C@H](CC(=O)Nc3ccccc3OC)O[C@@H]1CO2,0.8,2.3,0.8,-1.8

# Other results.
SMILES,rRNA inh HTS,rRNA inh HTS OD600,rRNA inh HTS RFP,AF4-AF9 inh
O=C(c1ccc2c(c1)OCO2)N1CC2(C1)[C@@H](c1ccccc1)[C@H](CO)N2C(=O)C1CCC1,1.5,2.7,3.8,-3.1
CN(C)CC#Cc1ccc([C@H]2[C@@H](CO)N3C(=O)CN(C(=O)c4ccccc4)C[C@H]23)cc1,7.8,12.5,-4.9,0.2
COc1ccc(NC(=O)N[C@H]2CC[C@@H](CCn3cc(-c4ccccc4F)nn3)O[C@H]2CO)cc1,-0.9,-5.5,-3.8,0.6
O=C1CCCC[C@@H](O)[C@H](O)C[C@H](c2ccccc2)O1,9.4,5.7,4.6,-5.6
O=C(C[C@H]1CC[C@@H](NC(=O)c2ccccc2)[C@@H](CO)O1)Nc1ccc(-c2ccccc2)cc1,-4.1,-30.1,-2.3,2.5
COc1ccc(CN(C)C[C@H]2OCCCC[C@H](C)Oc3ccc(NC(=O)C4CCCCC4)cc3C(=O)N([C@H](C)CO)C[C@H]2C)cc1,0.2,-8.6,1.0,-2.6
COCC#Cc1ccc2c(c1)O[C@H](CN(C)C(=O)CN(C)C)[C@@H](C)CN([C@@H](C)CO)S2(=O)=O,2.3,6.5,-2.0,-0.6
O=C(N[C@@H]1CC[C@H](CC(=O)N2CCC(Cc3ccccc3)CC2)O[C@H]1CO)c1cnccn1,-1.5,-2.1,2.6,-1.5
COCC(=O)N1CC[C@H]2[C@H](CO)Nc3ccc(C#Cc4ccc(F)cc4)cc3[C@H]21,-2.9,6.8,2.0,4.0
COCC#Cc1cnc2c(c1)C(=O)N([C@H](C)CO)C[C@H](C)[C@@H](CN(C)C)O2,8.1,10.5,0.2,-2.5

# 3 entries from above, with bars between the fields.
Compound | rRNA inh HTS | rRNA inh HTS OD600 | rRNA inh HTS RFP | AF4-AF9 inh
COCC(=O)N1CC[C@H]2[C@H](CO)Nc3ccc(C#Cc4ccc(F)cc4)cc3[C@H]21 | -2.9 | 6.8 | 2.0 | 4.0
O=C(N[C@@H]1CC[C@H](CC(=O)N2CCC(Cc3ccccc3)CC2)O[C@H]1CO)c1cnccn1 | -1.5 | -2.1 | 2.6 | -1.5
COc1ccc(CN(C)C[C@H]2OCCCC[C@H](C)Oc3ccc(NC(=O)C4CCCCC4)cc3C(=O)N([C@H](C)CO)C[C@H]2C)cc1 | 0.2 | -8.6 | 1.0 | -2.6
